From PubChem
SARS PLP yeast – SARS-CoV PLP inhibition in yeast | S. cerevisiae expressing SARS-CoV PLpro, growth rescue; control for the full effect not named in the record | Potency, µM (series often up to 32.9 µM), without a hit: at the highest dose activity, positive = growth rescue | 0.19% of 330,000 active; active means well fitted rising curve with a large enough effect; inconclusive means small, poorly fitted or top-dose-only effect; inactive means no such curve, though single readings can be large or run the other way; further: 0% is about no effect; nearly all actives have a fitted effect of over 55% in size; growth read by luminescence after 48 h
Marburg entry inh – Marburg virus entry inhibition. Marburg virus pseudotyped entry inhibition, cell reporter; control for the full effect not named in the record; about a third of the inactives were read at about 46 µM. Potency, µM (titrated, usually from 37.8 µM), inactives show at the highest dose activity change, negative = inhibition, hits mostly inhibitors. 1.8% of 300,000 active; active = well fitted inhibition curve with a large enough effect; inconclusive = small, poorly fitted or top-dose-only effect, or effect the other way; inactive = flat fitted curve, though single readings scatter; tested in HEK293 cells; about a fifth of its hits are not listed in these tables; further: on the % scale 0 is the no-effect control and ±100 the full control effect; luciferase read-out
Cruzain Triton – inhibitors of Trypanosoma cruzi cruzain with detergent. P25779. purified cruzain, Z-FR-AMC fluorescence, 0.01% Triton. Potency, µM, for inactives: max response, negative = inhibition, hits mostly inhibitors. 0.43% of 200,000 active. AID 1478;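 further: plate controls were neutral wells for no effect and buffer without enzyme for full effect; nearly all actives have a fitted effect of over 40% in size; top concentration of the series not given in the record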
Target sequence (P25779 123-467 limits assumed): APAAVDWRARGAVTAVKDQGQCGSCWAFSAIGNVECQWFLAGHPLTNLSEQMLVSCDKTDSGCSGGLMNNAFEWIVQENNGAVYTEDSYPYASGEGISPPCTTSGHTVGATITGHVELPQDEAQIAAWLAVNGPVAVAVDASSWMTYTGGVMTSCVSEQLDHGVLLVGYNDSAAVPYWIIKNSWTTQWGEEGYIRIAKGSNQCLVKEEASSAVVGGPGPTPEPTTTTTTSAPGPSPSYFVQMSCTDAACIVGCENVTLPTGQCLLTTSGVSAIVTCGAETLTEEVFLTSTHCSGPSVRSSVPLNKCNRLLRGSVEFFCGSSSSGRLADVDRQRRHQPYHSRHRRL
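Steps: dispense cruzain (1.5 nM final) in acetate buffer pH 5.5 with DTT and 0.01% Triton X-100; pin-transfer compounds; incubate 15 min RT; add Z-FR-AMC (2 uM final); read fluorescence every 30 s, using the 60 s intensity change.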
LASV entry inh – blocks Lassa virus binding to or entry into cells; Lassa virus pseudotype entry inhibition, cell reporter; control for the full effect not named in the record; Potency, µM (doses to about 37.9 µM), for the others: at the top dose activity change, negative = inhibition, actives largely listed as inhibitors; 1.2% of 300,000 active; active means well fitted inhibition curve with a large enough effect; inconclusive means small, poorly fitted or top-dose-only effect, or effect the other way; inactive means flat fitted curve, though single readings scatter; tested in HEK293 cells; further: on the % scale 0 is the no-effect control and ±100 the full control effect; nearly all actives have a fitted effect of over 50% in size; luciferase read-out
NS1 function inh – influenza NS1 inhibition; 0.4% of 270,000 active; S. cerevisiae slowed by influenza A NS1, growth recovery by OD600; Potency, µM (top dose mostly 46.1 µM), for the others: top-dose activity, positive = more growth; active means well fitted rising curve with a large enough effect; inconclusive means small, poorly fitted or top-dose-only effect; inactive means no such curve, though single readings can be large or run the other way; further: nearly all actives have a fitted effect of over 50% in size
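S. cerevisiae expressing influenza A NS1, grown in glucose, washed, then diluted 1:100 into pH 6.0 -URA galactose medium with 23 nl compound. Growth recovery read as OD600; NS1-free strain serves as control.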
RE007 growth inh – less growth of the S. pombe RE007 Vpr strain; S. pombe RE007 Vpr strain, BacTiter-Glo ATP luminescence, 24 h; control for the full effect not named in the record; Potency, µM (series often up to 92.2 µM), for inactives: at the highest dose activity change, negative = less growth; 0.21% of 360,000 active; AID 651644; active = well fitted falling curve with a large enough effect; inconclusive = small, poorly fitted or top-dose-only effect; inactive = no such curve, though single readings can be large or run the other way;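 further: on the % scale 0 is the no-effect control and ±100 the full control effect; nearly all actives have a fitted effect of over 50% in size; the assay follows cell death caused by Vpr and the record does not say whether a fall means rescue or toxicity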
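Fission yeast RE007 carrying one integrated HIV-1 vpr copy, seeded at OD 0.01 in PMG+AL medium with 23 nL pinned compound. Grown 24 h at 30 degrees; viability read by BacTiter-Glo luminescence after 5 min.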
Cruzain inh noDet – blocks cruzain activity in detergent-free assay; P25779; AID 1476; purified cruzain, Z-FR-AMC fluorescence, no detergent; Potency, µM, without a hit: max response, negative = inhibition, usual class: inhibitors; 2.3% of 200,000 active;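 further: plate controls were enzyme without inhibitor for no effect and buffer without enzyme for full effect; nearly all actives have a fitted effect of over 40% in size; top concentration of the series not given in the record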
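Detergent-free condition (0.00005% Triton X-100) in acetate buffer pH 5.5 with DTT. 1.5 nM enzyme and compound were pre-mixed 15 min, then 2 uM Z-FR-AMC substrate added; reaction progress from fluorescence change between first and third reads (60 s).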
StopGo reporter – FMDV 2A StopGo reporter, luciferase signal; human cells with a luciferase reporter of 2A StopGo recoding; control for the full effect not named in the record; Potency, µM (titrated, usually from 57.9 µM), for inactives: at the highest dose signal change, negative = less light; 1.2% of 410,000 active; active = well fitted falling curve with a large enough effect; inconclusive = small, poorly fitted or top-dose-only effect; inactive = no such curve, though single readings can be large or run the other way; tested in HEK293T cells; further: on the % scale 0 is the no-effect control and ±100 the full control effect; nearly all actives have a fitted effect of over 45% in size; luciferase light after 4 h
Numbers without * were called inactive; & = joins results of further samples; [ ] = dose if it differs, or a comment. Unless noted, the call rests on the fitted dose curve; in most records, active means well fitted curve in the direction sought with a large enough effect; inconclusive means small, poorly fitted or top-dose-only effect, or another doubt; inactive means no such curve, though single readings can be large; an effect the other way counts as inactive or inconclusive. Potency means the concentration at half of the fitted maximal effect.

How did CCOC(=O)N1CCN(S(=O)(=O)N2CCCC(C(=O)NCc3ccccc3OC)C2)CC1 (stereo not given) do in these assays?
SARS PLP yeast: 0.7%; Marburg entry inh: inconclusive; Cruzain Triton: 0.4%; LASV entry inh: inconclusive; NS1 function inh: -3.5%; RE007 growth inh: -10.3%; Cruzain inh noDet: -9.8%; StopGo reporter: -4.9%&-14.6%

How did COc1ccc(OC)c(CCNC(=O)Cn2sc3nc(C)cc(C)c3c2=O)c1 do in these assays?
SARS PLP yeast: -18.3%; Marburg entry inh: 6.9%; Cruzain Triton: -2.4%; NS1 function inh: inconclusive; Cruzain inh noDet: -1.6%

Results for CCc1cc2c(Sc3nc4ccccc4s3)ncnc2s1 ?
SARS PLP yeast: 0.4%; Marburg entry inh: -11.1%; Cruzain Triton: -0.3%; LASV entry inh: -21.7%; NS1 function inh: -6.3%; RE007 growth inh: -11.4%; Cruzain inh noDet: 1.8%; StopGo reporter: -10.0%

How did CCOc1ccc(CCNC(=O)c2cc3c(-c4ccccc4F)nn(C)c3s2)cc1OCC do in these assays?
Marburg entry inh: inconclusive; Cruzain Triton: -3.5%; LASV entry inh: inconclusive; Cruzain inh noDet: inconclusive; StopGo reporter: inconclusive

How did CN(C)S(=O)(=O)c1ccc(N2CCCC2=O)c([N+](=O)[O-])c1 do in these assays?
SARS PLP yeast: 26.7%; Marburg entry inh: 12.2%; Cruzain Triton: -1.6%; LASV entry inh: -2.8%; NS1 function inh: 13.9%; RE007 growth inh: -15.8%; Cruzain inh noDet: -10.6%; StopGo reporter: 0.0%

How did O=C(NCCO)c1cc2cc(Cl)cc(Cl)c2oc1=O do in these assays?
SARS PLP yeast: -1.2%; Marburg entry inh: 33.9%[46.1 µM]; LASV entry inh: -4.0%; RE007 growth inh: 7.1%; StopGo reporter: -5.9%

How did Cn1c(=O)c(=O)n(C)c2cc(S(=O)(=O)N3CCN(c4cccc(C(F)(F)F)c4)CC3)ccc21 do in these assays?
SARS PLP yeast: 3.1%; Marburg entry inh: -1.4%; Cruzain Triton: 3.0%; LASV entry inh: 2.8%; NS1 function inh: 2.1%; RE007 growth inh: 22.9%; Cruzain inh noDet: -12.2%; StopGo reporter: -15.3%

Results for Cc1ccc(-n2nc3ccc(NC(=O)Cc4ccc(Cl)cc4)cc3n2)cc1 ?
Cruzain Triton: -2.1%; LASV entry inh: -13.5%[46.1 µM]; Cruzain inh noDet: -23.1%; StopGo reporter: -22.1%

How did O=C1CC(NCc2ccco2)C(=O)N1CCc1ccccc1 (stereo not given) do in these assays?
SARS PLP yeast: -3.9%; Marburg entry inh: 22.4%; Cruzain Triton: 3.6%; LASV entry inh: 0.4%; NS1 function inh: -12.0%; RE007 growth inh: -7.3%; Cruzain inh noDet: -5.6%; StopGo reporter: 23.5%

What do the screens show for `O=Cc1c(N2CCSCC2)nc2ccccn2c1=O`?
SARS PLP yeast: -0.2%; Marburg entry inh: 13.8%; LASV entry inh: 15.1%; NS1 function inh: 5.4%; RE007 growth inh: 4.8%; StopGo reporter: -15.2%

How did CCOC(=O)c1cnn(-c2nc(-c3ccc(C)cc3)cs2)c1C(F)(F)F do in these assays?
SARS PLP yeast: -9.1%; Marburg entry inh: inconclusive; Cruzain Triton: -11.7%; LASV entry inh: -15.7%; NS1 function inh: 1.5%; RE007 growth inh: -2.9%; Cruzain inh noDet: -0.1%; StopGo reporter: 6.7%

Results for Cc1ccc(C(=O)NC2CCSC2=O)cc1 (stereo not given) ?
SARS PLP yeast: 0.7%; Marburg entry inh: 29.4%; Cruzain Triton: 2.2%; LASV entry inh: 17.5%; NS1 function inh: 8.9%; RE007 growth inh: 0.1%; Cruzain inh noDet: -5.9%

What do the screens show for `CCOc1ccc(S(=O)(=O)N2CCCCC2)cc1NC(=O)CN1C(=O)NC(C)(c2ccccc2)C1=O` (stereo not given)?
SARS PLP yeast: -4.3%; Marburg entry inh: inconclusive; LASV entry inh: inconclusive; RE007 growth inh: -2.3%; StopGo reporter: -8.3%

Results for COCCNC(=O)c1cc(-c2ccc3c(c2)OCO3)on1 ?
SARS PLP yeast: inconclusive; Marburg entry inh: -1.5%; Cruzain Triton: 2.5%; LASV entry inh: inconclusive; NS1 function inh: -4.8%; RE007 growth inh: inconclusive; Cruzain inh noDet: 1.0%; StopGo reporter: -28.0%

How did Cc1cc(C)c(NC(=O)CNC(=O)COC(=O)Cc2cccs2)c(C)c1 do in these assays?
SARS PLP yeast: -0.2%; Marburg entry inh: 5.9%; LASV entry inh: -15.1%; RE007 growth inh: 1.5%; StopGo reporter: -2.7%

What do the screens show for `CCc1sc(Nc2cccc(C)c2)nc1-c1cc2cccc(OC)c2oc1=O`?
Cruzain Triton: -2.4%; LASV entry inh: -7.0%[46.1 µM]; Cruzain inh noDet: inconclusive; StopGo reporter: 21.4%

How did O=C(Cc1ccccc1)Nc1ccc(NC(=O)c2ccccc2)nc1 do in these assays?
SARS PLP yeast: 0.9%; Marburg entry inh: inconclusive; LASV entry inh: 4.9%; NS1 function inh: -5.5%; RE007 growth inh: 5.7%; StopGo reporter: 92.4%[activator]

What do the screens show for `Cc1cc(C)nc(N/N=C/c2cn[nH]c2-c2ccccc2)n1`?
SARS PLP yeast: -0.8%; Marburg entry inh: -26.9%[46.1 µM]; LASV entry inh: -2.2%[46.1 µM]; NS1 function inh: 0.3%; RE007 growth inh: 20.7%; StopGo reporter: -10.1%

What do the screens show for `CN(C)CCCN(C(=O)COc1ccc(Cl)cc1)c1nc2cc3c(cc2s1)OCCO3`?
SARS PLP yeast: -0.8%; Marburg entry inh: 2.9%; LASV entry inh: 6.9%[46.1 µM]; RE007 growth inh: 3.2%; StopGo reporter: 11.1%

How did Clc1ccc(OCCCCN2CCCCC2)cc1 do in these assays?
SARS PLP yeast: -3.5%; Marburg entry inh: inconclusive; LASV entry inh: -18.5%[46.1 µM]; NS1 function inh: -4.7%; RE007 growth inh: 8.0%; StopGo reporter: -14.7%

What do the screens show for `Cc1nc(C)c(C(=O)N2CCCC(CCC(=O)NCc3ccc(F)c(F)c3)C2)s1` (stereo not given)?
SARS PLP yeast: -0.5%; Marburg entry inh: 6.3%[46.1 µM]; LASV entry inh: 2.5%[46.1 µM]; NS1 function inh: 2.3%; RE007 growth inh: -1.7%; StopGo reporter: -0.1%

What do the screens show for `CCCCOc1ccc(C(=O)Nc2ccc(S(=O)(=O)Nc3nc(C)cc(C)n3)cc2)cc1`?
Marburg entry inh: inconclusive; Cruzain Triton: -6.0%; LASV entry inh: -3.9%[46.1 µM]; Cruzain inh noDet: inconclusive; StopGo reporter: -14.5%

How did CCCCN(CC)C(=O)c1ccc(Cl)c(Cl)c1 do in these assays?
SARS PLP yeast: 1.2%; Marburg entry inh: -16.6%; Cruzain Triton: 6.2%; LASV entry inh: 13.9%; NS1 function inh: 0.1%; RE007 growth inh: 0.5%; Cruzain inh noDet: 4.1%; StopGo reporter: 7.3%

Results for O=C(Nc1nccs1)c1cc2c(s1)CCCCC2 ?
SARS PLP yeast: -29.6%; Marburg entry inh: inconclusive; Cruzain Triton: -16.8%; LASV entry inh: inconclusive; NS1 function inh: -232.5%; RE007 growth inh: 31.6µM*; Cruzain inh noDet: -19.8%; StopGo reporter: 8.91µM*

How did COc1cc(C2CC(=O)N(CC(=O)NCc3ccco3)c3ccccc3S2)cc(OC)c1OC (stereo not given) do in these assays?
SARS PLP yeast: 2.2%; Marburg entry inh: -0.4%&-4.6%; Cruzain Triton: -4.3%; LASV entry inh: -4.8%; NS1 function inh: 2.1%; RE007 growth inh: 5.1%; Cruzain inh noDet: inconclusive; StopGo reporter: inconclusive

How did COc1cccc(-n2c(N)c(C(=O)Nc3c(C)n(C)n(-c4ccccc4)c3=O)c3nc4ccccc4nc32)c1 do in these assays?
SARS PLP yeast: -0.3%; Marburg entry inh: -1.2%[46.1 µM]; LASV entry inh: inconclusive; NS1 function inh: 6.4%; RE007 growth inh: 8.4%; StopGo reporter: 0.8%

What do the screens show for `CC1CCc2nc(NC(=O)CN3CCN(Cc4ccc5c(c4)OCO5)CC3)sc2C1` (stereo not given)?
SARS PLP yeast: 4.8%; Marburg entry inh: inconclusive; Cruzain Triton: -0.3%; LASV entry inh: -15.8%; NS1 function inh: 2.5%; RE007 growth inh: 7.1%; Cruzain inh noDet: -7.3%; StopGo reporter: inconclusive

Results for COc1ccc(CCNC(=O)CCNC(=O)N2CC(=O)Nc3ccccc32)cc1OC ?
SARS PLP yeast: -2.0%; Marburg entry inh: 6.3%[46.1 µM]; LASV entry inh: 11.2%[46.1 µM]; NS1 function inh: -10.1%; RE007 growth inh: 2.0%; StopGo reporter: -2.9%

What do the screens show for `CC(=O)C1=C(C)OC(N)=C(C#N)C1c1cccnc1` (stereo not given)?
SARS PLP yeast: -1.9%; Marburg entry inh: -26.3%[46.1 µM]; LASV entry inh: 8.8%[46.1 µM]; RE007 growth inh: -8.1%; StopGo reporter: 7.5%

What do the screens show for `Cc1nc(C)c(C(=O)OCC(=O)NCCc2ccc(F)cc2)s1`?
SARS PLP yeast: 0.1%; Marburg entry inh: 0.5%[46.1 µM]; LASV entry inh: 6.0%; RE007 growth inh: 8.1%; StopGo reporter: -23.1%

What do the screens show for `Cc1cc(C(F)F)n2nc(C(=O)Nc3cc(C)on3)nc2n1`?
SARS PLP yeast: 7.1%; Marburg entry inh: 20.7%&20.7%; Cruzain Triton: 1.3%; LASV entry inh: 5.2%; NS1 function inh: -8.8%; RE007 growth inh: -2.5%; Cruzain inh noDet: -5.4%; StopGo reporter: -23.9%

How did C/C(=N\OC(=O)c1ccc(C)cc1)c1sc(C)nc1C do in these assays?
SARS PLP yeast: -4.7%; Marburg entry inh: 25.2%; Cruzain Triton: -0.7%; LASV entry inh: -2.0%; NS1 function inh: -74.7%; RE007 growth inh: 29.7%; Cruzain inh noDet: -4.2%; StopGo reporter: 16.2%

What do the screens show for `Cc1cc(C)c(NC(=O)CCCn2c(C)c3cnn(-c4ccccc4)c(=O)c3c2C)c(C)c1`?
Marburg entry inh: -29.9%[46.1 µM]; Cruzain Triton: -2.5%; LASV entry inh: -9.7%[46.1 µM]; Cruzain inh noDet: inconclusive; StopGo reporter: -21.4%

Results for CCC(C(=O)Nc1cccc(C#N)c1)n1c(=O)c(-c2ccccc2NC(C)=O)nc2ccccc21 (stereo not given) ?
Marburg entry inh: -2.6%[46.1 µM]; Cruzain Triton: -2.6%; LASV entry inh: 8.8%[46.1 µM]; Cruzain inh noDet: -10.6%; StopGo reporter: inconclusive
